CapD inh: Bacillus anthracis CapD inhibitors, primary screen, biochemical, fluorescence intensity. z-score (test concentration not listed). AID 492967, 2010. 140,000 tested, 0.23% active. purified CapD enzyme, fluorescence intensity read-out; active compounds read low; some hits fall short of the stated cut;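 active = z-score under -4 in either of two replicates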;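 also: stock transfer was 100 nL into about 40 µL; score is relative to mean and spread of the plate; one replicate is shown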
AID504770: growth inhibition of E. coli YBA685, primary screen, V. cholerae RctB inhibitors | E. coli YBA685 rctB-dependent plasmid, OD600 growth, 3 h; active compounds read low | z-score (test concentration not listed) | 130,000 tested, 0.27% active;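 active = z-score under -2 on both plates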;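 also: wells of about 30 µL received 100 nL stock; score is relative to mean and SD of the test wells; the first replicate is given; strong numbers were not always called active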
The depositor's hits bear a star; / = not tested or not shown.

Below each SMILES – CapD inh, AID504770
- CCN1CCCC1CNc1ncnc2c1cnn2-c1ccc(C)cc1 (stereo not given)
→ 1.9, -1.1
- CCOc1cc(C(=O)Nc2ccc(Cl)c(-c3nc4cc(C)c(C)cc4o3)c2)cc(OCC)c1OCC
→ -0.34, /
- COc1ccc(OC)c(/C=N/c2sc3c(c2C#N)CCC3)c1
→ 0.39, 1
- COc1cc(C2NC(=O)NC(C)=C2C(=O)OCCc2ccccc2)cc(Cl)c1O (stereo not given)
→ -0.23, /
- O=c1[nH]c(=O)n(-c2ccccc2)c2c1C(C(F)(F)F)(C(F)(F)F)N=C(c1ccncc1)N2
→ -1.4, 0.45
- CCn1c(SCC(=O)N(C)C2CCCCC2)nc2ccc(Br)cc2c1=O
→ /, -0.05
- COc1ccccc1OCCNC(=O)c1coc2ccccc2c1=O
→ /, 0.35
- C(=Nc1ccc2c(c1)OCCOCCOCCO2)c1c[nH]c2ccccc12
→ -0.7, -0.35
- Cc1nc(-c2cc(Cl)cc(Cl)c2)c(C)[nH]1
→ -0.38, /
- Cc1ccc(-c2nc(-c3ccc(-c4ccccc4)cc3)[nH]c2-c2ccccc2)cc1C
→ -0.33, /
- CN(C)/C=C1\S/C(=N\S(=O)(=O)c2ccc(Cl)cc2)N(C2CCCCC2)C1=O
→ /, 0.35
- CC1=C(C(=O)Nc2ccccc2)C2(CCCCC2)C(C#N)=C(SCC(=O)Nc2nccs2)N1
→ -0.7, -0.55
- CCN1C(=S)SC(=O)C1=C1C=C(C)N(CCO)C(C)=C1
→ /, -0.05
- CCOC(=O)c1c(-c2cccs2)csc1NC(C)=O
→ /, -0.3
- CCOC(=O)c1csc(NC(=O)Nc2cccc(OC)c2)n1
→ /, -1.4
- CN(C)S(=O)(=O)c1ccc(=O)n(C(C(=O)NC2CC2)c2ccccc2)c1 (stereo not given)
→ /, 0.55
- CC1CN(/C(=N\S(=O)(=O)c2ccccc2)c2ccccc2)CC(C)O1 (stereo not given)
→ /, 1.6
- O=C(COC(=O)c1ccc2c(=O)n3c(nc2c1)CCCCC3)NCC1CCCCC1
→ /, -0.05
- CC(NC(=O)c1ccc(C#N)cc1)C(c1cccs1)N1CCCC1 (stereo not given)
→ -1.3, -0.35
- CCC(Cc1ccccc1)NC(=O)Cn1c(=O)oc2cc(S(=O)(=O)NCc3ccccc3)ccc21 (stereo not given)
→ -0.21, -0.05

Additional structures.
Below each SMILES – CapD inh, AID504770
- CC(C)CC(=O)Nc1ccc(C(=O)CN2CCN(c3ccc(O)cc3)CC2)cc1
→ /, -0.65
- CCOc1ccc(-n2nnnc2SCC(=O)c2c(C)cc(C)cc2C)cc1
→ -0.52, -0.1
- O=C1c2ccccc2S(=O)(=O)N1CCSc1ncc(C(F)(F)F)cc1Cl
→ /, -0.05
- CSc1ccc(CCNC(=O)c2ccc3snnc3c2)cc1
→ -0.28, 0.55
- Clc1ccccc1CSc1nc(-c2ccccc2)c(-c2ccccc2)[nH]1
→ 1, /
- CC(C)(C)C(=O)CSc1ncccn1
→ -0.2, 0.6
- COc1ccccc1NC1=NC(c2ccc(Cl)cc2)N=C(N)N1 (stereo not given)
→ /, -0.85
- CC(OC(=O)CC1CC2CCC1C2)C(=O)Nc1ccc(N2CCOCC2)cc1 (stereo not given)
→ /, 0.55
- COC(=O)C1C(=O)NC(SCC(=O)Nc2ccccc2C)=C(C#N)C1c1ccc(C(C)C)cc1 (stereo not given)
→ -0.32, /
- CC(C)NC(=O)c1c2c(nn1C)-c1ccccc1SC2
→ 0.48, -1
- N#Cc1ccc(COc2cccc[n+]2[O-])cc1
→ /, 0
- O=C(NCc1cccnc1)c1ccccc1C(=O)Nc1sc2ccccc2c1Cl
→ 3, -0.3
- COc1ccc2c(c1)CCC/C2=N\NC(N)=S
→ -1.9, 1.4
- CCc1c(C)c(C#N)c2nc3ccccc3n2c1Nc1ccncc1
→ -0.78, -0.25
- Cn1cnc2cc(NC(=O)COc3ccccc3)ccc21
→ /, -0.1
- Cc1ccc(N=Cc2c(O)cc(C)oc2=O)cc1
→ -0.8, -0.2
- CCn1c(SCC(=O)Nc2ccccc2OC)nc2c([nH]c3ccccc32)c1=O
→ /, 1.4
- Oc1c(Cl)cc(Cl)cc1/C=N/c1nccs1
→ -0.08, -0.35
- CC(=O)Nc1ccc(NC(=O)Nc2cccs2)cc1
→ -0.18, -1.4
- O=C(c1ccccc1)N1CCN(C(=O)C2(c3ccccc3)CC2)CC1
→ /, -0.4

(cont.)
Below each SMILES – CapD inh, AID504770
- Cn1c(SCc2cc(=O)n3cc(Br)ccc3n2)nnc1-c1ccco1
→ /, 0.8
- Cc1nn(-c2ccccc2)c2c1C(O)n1c(nc3ccccc31)S2 (stereo not given)
→ /, 0.25
- COc1cc2c(C(=O)N3CCN(C)CC3)c(C)oc2cc1Br
→ -0.14, -1.1
- CCN(CC(=O)Nc1ccc(SC(F)F)cc1)CC1COc2ccccc2O1 (stereo not given)
→ /, -0.2
- Oc1c(C=Nc2ccc(Br)cc2)sc2ccccc12
→ -1.4, 2.4
- CNC(=O)CSCC(=O)Nc1cc(OCCOC)c(Cl)cc1Cl
→ 0.38, /
- Cc1cc(NC(=O)c2ccc3c(c2)NC(=O)c2ccccc2S3)no1
→ -0.67, -0.1
- COC(=O)C1=C(N)OC(C)=C(C(=O)OC(C)C)C12C(=O)Nc1ccccc12 (stereo not given)
→ 0.03, /
- COCc1cc(C)n(CC(=O)N2CCC(C)CC2)c(=O)c1C#N
→ /, -0.3
- CC1=CC(=O)C(N(CCO)CCO)=CC1=O
→ /, -0.6
- CCc1ccc2c(c1)C1(NN=C(c3ccccc3)S1)C(=O)N2 (stereo not given)
→ /, 0.4
- COc1ccc(NC(=O)CN2C(=O)/C(=C3\SC(N4CCOCC4)=NC3=O)c3ccccc32)cc1
→ 0.66, /
- CCn1c(C(=O)O)c(S(=O)(=O)c2ccc(Cl)cc2)c2ccccc21
→ 0.79, 0
- Oc1ccc(C(=S)N2CCN(c3cccc(Cl)c3)CC2)cc1
→ -0.64, 1.4
- CCc1c(C(=O)NCCN(C)C)csc1C
→ -0.12, -0.95
- CC(C)CCn1cccc1C1=NC(C)(C)CO1
→ -0.43, -0.45
- O=C(Nc1ccc(I)cc1)c1sc2cc(Cl)ccc2c1Cl
→ 2, /
- Cc1cc(C(=O)CSc2ccc3c(c2)OCCO3)c(C)n1C
→ /, -2.6
- C=CCc1ccccc1OCC(O)Cn1c(C)nc2ccccc21 (stereo not given)
→ 0.29, -0.6
- O/N=C/c1ccc(-c2ccccc2OC(F)(F)F)o1
→ -0.085, -0.55

The list goes on:
Below each SMILES – CapD inh, AID504770
- Cc1ccc(C(=O)NC2(O)C(=O)c3ccccc3C2=O)cc1C
→ -0.66, -1.6
- CCOC(=O)C1=C(C)N=c2s/c(=C\c3ccc4c(c3)n(C)c(=O)n4C)c(=O)n2C1c1ccc(N(C)C)cc1 (stereo not given)
→ -0.62, /
- COc1ccc(Sc2cccs2)cc1
→ -0.36, 1.1
- CCS(=O)(=O)N1CCN(S(=O)(=O)c2ccc(C)cc2)CC1
→ 0.52, -0.25
- O=C1Nc2cc(C(=O)N3CCN(c4ccc(F)cc4)CC3)ccc2NC1CS(=O)(=O)Cc1ccc(F)cc1 (stereo not given)
→ -0.72, 0.15
- Cc1[nH]nc2c1C1(C(=O)Nc3ccc(Cl)cc31)C(C#N)=C(N)O2 (stereo not given)
→ -0.67, /
- CCOC(=O)C1CCCCN1Cc1ccc(CC)cc1 (stereo not given)
→ -0.84, 1.9
- CCCc1oc2ccc(NS(=O)(=O)c3ccc(C)cc3C)cc2c1C(=O)OCC
→ -1.3, /
- CC(C)(C)SCCNc1nc(Oc2ccc(Cl)cc2)nc(Oc2ccc(Cl)cc2)n1
→ 0.23, /
- N=c1n(CCOc2ccccc2)c2ccccc2n1Cc1ccccc1
→ 0.49, -0.7
- CC(=O)OC[C@H]1O[C@@H](NC(N)=O)[C@H](OC(C)=O)[C@@H](OC(C)=O)[C@@H]1OC(C)=O
→ 0.99, -0.05
- Cc1ccc(C(=O)N(c2ccc(SC(F)F)cc2)c2nc3ccccc3s2)o1
→ /, 1.6
- O=C(O)CCC(=O)N(c1ccccc1)c1ccccc1
→ 0.28, 0.1
- O=C(CSc1ncn[nH]1)C1CC1
→ 0.65, -0.1
- COc1cccc2sc(=NC(=O)Cc3cccc4ccccc34)n(C)c12
→ 0.15, 0.65
- CCC1(C)N=C(c2ccc3c(c2)OCO3)CC(c2ccccc2O)N1 (stereo not given)
→ 0.97, -0.6
- CCOC(=O)C1=C(C)NC(C)=C(C(=O)OCC)C1c1cn(-c2ccccc2)nc1-c1ccc(F)cc1
→ 3.5, /
- COC(=O)N/N=C/c1c(C)nn(-c2cccc(Cl)c2)c1Cl
→ /, -0.85
- CC(C)(C)[C@H]1COC(CC2=N[C@@H](C(C)(C)C)CO2)=N1
→ 0.2, 0.1
- COc1cc(C2/C(=C(\O)c3ccc(F)cc3)C(=O)C(=O)N2Cc2cccnc2)ccc1O (stereo not given)
→ /, -1

The results go on.
Below each SMILES – CapD inh, AID504770
- COC(=O)CC1C(=O)NCCN1C(=O)c1sc2ccccc2c1Cl (stereo not given)
→ -0.64, 2.2
- O=C(COc1ccccc1)OCN1C(=O)c2ccccc2C1=O
→ 0.13, -0.25
- CCOC(=O)N1CCN(C(=O)CN2C(=O)/C(=C\c3ccc(C)cc3)Sc3ccccc32)CC1
→ -0.8, 3.8
- COC(=O)c1ccc(NS(=O)(=O)/C=C/c2ccccc2)cc1
→ -0.71, 1.6
- O=C(c1ccc(CNS(=O)(=O)c2ccccc2)cc1)N1CCN(c2ccccn2)CC1
→ 0.08, 0.3
- CC1CCN(S(=O)(=O)c2ccc(N=C3C(=O)Nc4ccccc43)cc2)CC1
→ -0.23, -0.35
- Cn1nc(C(=O)NC2CCCCC2)c2ccccc2c1=O
→ -0.27, 0.5
- CCN(Cc1ccccc1)CN1C(=O)C2(OCCCO2)c2ccccc21
→ -0.16, -0.9
- Oc1ccc(CN2CCc3ccccc3C2)c2cccnc12
→ /, 0.05
- CCc1nc2nc(C)cc(=O)n2[nH]1
→ 1.4, 0
- N#CC1C(=O)c2ccccc2C1=O
→ -0.91, /
- c1cc2c(cc1CN1CCNCC1)OCCO2
→ /, -0.05
- Cn1cc(C(=O)c2ccccc2)c2ccccc21
→ 26, -0.25
- Cc1ccc(S(=O)(=O)c2cnc(N)nc2-c2ccncc2)cc1
→ -0.04, /
- O=C(Nc1ccc2[nH]c3c(c2c1)CCCC3)c1ccco1
→ 0.4, -0.1
- O=C(CNC(=S)N(Cc1ccccc1)Cc1cccs1)NC1CCCCC1
→ -2.4, 1.1
- O=C(CCCSc1nc2ccccc2s1)NCc1ccco1
→ /, -2.1
- OC(c1ccccc1)c1nnc(SCc2ccc(Br)cc2)n1-c1ccccc1 (stereo not given)
→ -0.16, 1.2
- Cc1ccc(C(=O)C(C)OC(=O)C2=COCCO2)cc1C (stereo not given)
→ /, 0.3
- NC(CSC1CCCCO1)C(=O)O (stereo not given)
→ /, -0.4

Shown with each value named: part of the list above
> O=C(COc1ccccc1)OCN1C(=O)c2ccccc2C1=O
  CapD inh: 0.13
  AID504770: -0.25
> COc1cc2c(C(=O)N3CCN(C)CC3)c(C)oc2cc1Br
  CapD inh: -0.14
  AID504770: -1.1
> CCOC(=O)C1=C(C)N=c2s/c(=C\c3ccc4c(c3)n(C)c(=O)n4C)c(=O)n2C1c1ccc(N(C)C)cc1 (stereo not given)
  CapD inh: -0.62
  AID504770: /
> CCc1c(C)c(C#N)c2nc3ccccc3n2c1Nc1ccncc1
  CapD inh: -0.78
  AID504770: -0.25

Quoted from above for reference:
Below each SMILES – CapD inh, AID504770
- COC(=O)CC1C(=O)NCCN1C(=O)c1sc2ccccc2c1Cl (stereo not given)
→ -0.64, 2.2
- O=C(COc1ccccc1)OCN1C(=O)c2ccccc2C1=O
→ 0.13, -0.25
- CCOC(=O)N1CCN(C(=O)CN2C(=O)/C(=C\c3ccc(C)cc3)Sc3ccccc32)CC1
→ -0.8, 3.8

The results go on:
Below each SMILES – CapD inh, AID504770
- Cc1ccc2oc(=O)c(C(=O)CC3CCCC3)c(O)c2c1
→ 1.8, 0.4
- CC(Sc1nnc(-c2ccccc2Br)o1)C(=O)NC1CC1 (stereo not given)
→ /, 0.05
- COc1ccc(OCCNC(=O)c2ccc3nccnc3c2)cc1
→ 0.53, -0.3
- COc1cc(/C=N/N)cc(OC)c1OC
→ 0.53, -0.15
- Cc1ccnc(SCc2cc(=O)c(OC(=O)c3ccc4c(c3)OCO4)co2)n1
→ /, -1.1
- CS(=O)(=O)c1ccccc1C(=O)Nc1nnc(-c2ccc(Cl)cc2)o1
→ /, -1.4
- O=C(O)c1ccccc1-c1ccccc1C(=O)NCCCO
→ 0.64, 0.3
- Cc1ccc2nc(COC(=O)CN3C(=O)C4CC=CCC4C3=O)cc(=O)n2c1 (stereo not given)
→ /, 0
- CS(=O)(=O)c1cnc(-c2ccc(OCC3CCCCO3)cc2)nc1-c1ccc(Cl)cc1 (stereo not given)
→ 0.34, /
- Cn1c(-c2ccco2)n[nH]c1=S
→ /, -0.45
- COc1ccc(C(=O)N/C(=C\c2ccc3c(c2)OCO3)C(=O)Nc2ccc(C(=O)O)cc2)cc1
→ -0.81, /
- CCOC(=O)N1CCN(C(=O)c2ccc(NCc3ccc(F)cc3)c(S(=O)(=O)Nc3cccc(OC)c3)c2)CC1
→ 1.3, /
- CC(C)(C)c1cc(C(=O)Nc2nccs2)ccn1
→ -0.8, -0.35
- NCC1OC(OC2C(N)CC(N)C(OC3OC(CO)C(O)C(N)C3O)C2O)C(O)C(O)C1O (stereo not given)
→ 0.04, /
- Nc1nn2cc(-c3ccccc3)nc2c2ccccc12
→ 105, -1.1
- CCNC(=O)n1cc(-c2ccncn2)c(-c2cccnc2)n1
→ -0.28, /
- c1ccc(CN2CCC(NC3CCCC3)CC2)cc1
→ /, 0.7
- O=C(NC(=S)Nc1ccc(Br)cc1)C1CC1
→ /, 0.65
- Cc1c(C)c(C)c(CSc2nnc(/C(C#N)=C/c3cccs3)n2C)c(C)c1C
→ -1.2, /
- CC(Oc1ccc(-c2ccccc2)c(F)c1)c1ccnc(N)n1 (stereo not given)
→ 0.77, -0.2
- O=C(NC1CCCC1)c1ccccc1
→ 0.035, 0
